Bfl-1 A1 inh = caspase 3/7 activation in MEF A1-2A-BIM cells, primary screen, A1 inhibitor project, cell-based, luminescence, HTS; Caspase-Glo 3/7 luminescence, 3 h; percent of clofoctol response, vehicle zero; caspase activation, % (test concentration not listed); actives 0.066% (n = 330,000); AID 2462, 2010;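 active = over half of replicate activation scores above 10%, or exactly half above 10 with the replicate mean above 10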;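 also: wells of about 30 µL received 50 nL stock; many hits fall short of the cut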
Beta cell apopt = inhibitors of cytokine-induced beta cell apoptosis, primary screen, luminescence. INS-1E cytokine-induced death, ATP luminescence, 48 h; percent of positive-control rescue, neutral wells zero. protection from apoptosis, % (no concentration beside the values). actives 0.8% (n = 300,000). AID 435005, 2010;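 active = all replicates at 75% or more, or half of them and the mean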;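 also: 0% = cytokine-treated negative control wells and 100% = positive control rescue; higher means more ATP so stronger rescue from cytokine killing; wells of about 40 µL received 100 nL stock; the first replicate is given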
MLL AF4-AF9 inh = inhibitors of AF4 peptide binding to AF9, primary screen, biochemical, AlphaScreen, biotin-AF4 peptide, FLAG-AF9, single point | Protein AF-9 (Homo sapiens), P42568 | inhibition, % at 10 µM | actives 0.47% (n = 350,000);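 active = every replicate reaching a set inhibition limit, whatever the replicate mean, cut at about 25% in these data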;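 also: 0% = plate neutral control median and 100% = total signal loss; the record names both 10 and 1 µM as test concentration; the first replicate is given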
Target sequence (P42568 whole entry, looked up): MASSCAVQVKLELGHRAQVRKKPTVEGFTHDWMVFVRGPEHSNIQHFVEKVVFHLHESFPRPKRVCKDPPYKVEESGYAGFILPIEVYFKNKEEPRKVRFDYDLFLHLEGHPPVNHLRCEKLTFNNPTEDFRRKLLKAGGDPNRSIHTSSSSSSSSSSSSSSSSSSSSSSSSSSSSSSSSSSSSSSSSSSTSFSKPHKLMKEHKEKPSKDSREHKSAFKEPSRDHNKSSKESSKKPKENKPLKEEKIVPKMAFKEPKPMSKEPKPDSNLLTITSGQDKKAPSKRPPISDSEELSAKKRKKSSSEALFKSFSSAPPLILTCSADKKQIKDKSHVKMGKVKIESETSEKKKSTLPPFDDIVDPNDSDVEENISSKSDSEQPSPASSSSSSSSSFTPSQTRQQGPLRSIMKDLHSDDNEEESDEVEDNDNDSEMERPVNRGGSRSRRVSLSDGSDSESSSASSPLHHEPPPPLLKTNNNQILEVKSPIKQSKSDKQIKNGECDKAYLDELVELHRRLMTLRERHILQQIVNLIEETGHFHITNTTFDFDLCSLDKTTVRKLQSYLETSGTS
Ecoli growth = E. coli growth inhibition, primary screen, OD600. actives 0.21% (n = 330,000). AID 1053175, 2014. OD600 absorbance (concentration not given with the values). Escherichia coli growth, 23 h; hits give low values;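 active = OD600 absorbance below the run mean of sample wells minus 3.6 SD, in any replicate, cut at about 0.56 in these data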;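 also: stock transfer was 300 nL into about 60 µL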
UCH37 DUB inh = inhibitors of human UCH37 deubiquitinase, primary screen, biochemical, Ub-AMC cleavage, fluorescence; Ubiquitin carboxyl-terminal hydrolase isozyme L5 (Homo sapiens), Q9Y5K5; inhibition, % (test concentration not listed); purified proteasome/UCH37; actives 0.33% (n = 330,000); AID 588478, 2011;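 active = mean of two replicates above 20%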;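 also: 0% = compound-free wells with enzyme and 100% = wells lacking proteasome; stock transfer was 100 nL into about 20 µL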
Target sequence (Q9Y5K5 whole entry, looked up): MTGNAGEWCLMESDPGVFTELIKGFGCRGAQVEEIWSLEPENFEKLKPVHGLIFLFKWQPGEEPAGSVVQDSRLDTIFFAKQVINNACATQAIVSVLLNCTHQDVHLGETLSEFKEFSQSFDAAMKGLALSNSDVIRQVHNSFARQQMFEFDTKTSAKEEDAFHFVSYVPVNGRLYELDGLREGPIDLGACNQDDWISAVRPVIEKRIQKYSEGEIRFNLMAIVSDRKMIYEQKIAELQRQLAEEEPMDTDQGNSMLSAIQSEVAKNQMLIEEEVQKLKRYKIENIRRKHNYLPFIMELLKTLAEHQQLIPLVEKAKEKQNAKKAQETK
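Reagent: Ub-AMC substrate; assay system: Proteasome-associated human UCH37 deubiquitinase; controls: no-proteasome and no-compound wells; read-out: % inhibition of Ub-AMC cleavage fluorescence; timing: 30 min preincubation with enzyme, 25 min cleavage at room temperature; signal: AMC fluorescence from Ub-AMC cleavage, excitation 355 nm, emission 460 nm; buffer or medium: Tris-HCl pH 7.4 plus ovalbumin, ATP-MgCl2, DTT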
rRNA inh HTS = reduced GFP signal of wild-type E. coli, primary screen, bacterial rRNA inhibitor project, GFP/RFP fluorescence, OD600, single point. E. coli WT GFP vs humanized-ribosome RFP mutants, 24 h; hits give low values; DMSO median 0, no signal -100. GFP signal change (wild-type ribosome), % (test concentration not listed). actives 1.6% (n = 350,000). AID 720706, 2013;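 active = significant combined selectivity score with lowered wild-type GFP, culture density cut under 30%, mutant RFP and density less affected; inactive = any of these conditions unmet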; also: one replicate is shown; some compounds called inactive have numbers as strong as hits
T cruzi inh = inhibitors of intracellular T. cruzi growth, primary screen, luminescence, NIH3T3 host cells; T. cruzi beta-gal in NIH3T3, 90 h; inhibition, % (concentration not given with the values); actives 1.4% (n = 300,000);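 active = mean inhibition across valid replicates above about 55%, limit read from the data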;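 also: signal also drops with host cell toxicity which is not excluded here; 0% = plate median of DMSO wells and 100% = zero luminescence signal; higher percent means less beta-gal luminescence so fewer parasites; stock transfer was 50 nL into about 50 µL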
FGF22 binding = binders of human FGF22 protein, primary screen, FGF22 synaptogenesis inhibitor project, biophysical, thermal shift, single point. calls only at 9.99 µM. Fibroblast growth factor 22 (Homo sapiens), Q9HCT0. actives 1.5% (n = 340,000). recombinant FGF22 thermal shift, SYPRO orange fluorescence; percent of sucrose octasulfate shift, DMSO zero. AID 651658, 2012;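 active = melting point raised past a set limit in the mean and every replicate; three in four hits are not shown here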
Target sequence (Q9HCT0 whole entry, looked up): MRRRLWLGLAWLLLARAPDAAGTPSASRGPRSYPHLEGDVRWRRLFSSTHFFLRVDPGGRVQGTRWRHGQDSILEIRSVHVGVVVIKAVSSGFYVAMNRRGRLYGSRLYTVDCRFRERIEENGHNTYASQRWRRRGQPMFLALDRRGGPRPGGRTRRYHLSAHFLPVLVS
rRNA inh HTS OD600 = second read-out of rRNA inh HTS, no call of its own (marks repeat the call); OD600 change, %; measured here: OD600 growth;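 optical density of the mix in the first replicate; 0 = DMSO median and -100 = no signal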
rRNA inh HTS RFP = further read-out of rRNA inh HTS, marked with its call; RFP signal change, %; measured here: RFP humanized mutant strains;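 first replicate; 0 = DMSO median and -100 = no signal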
* marks the source's active call; other numbers are inactive results; i = inactive; . = not tested or not shown; & = joins results of further samples.

structure | Bfl-1 A1 inh | Beta cell apopt | MLL AF4-AF9 inh | Ecoli growth | UCH37 DUB inh | rRNA inh HTS | rRNA inh HTS OD600 | rRNA inh HTS RFP | T cruzi inh | FGF22 binding
CC1CCCN(c2nc3c(c(=O)n(C)c(=O)n3C)n2CCSc2nc3ccccc3o2)C1 (centres undefined) | 0.6 | -1 | . | 0.69 | 1.9 | . | . | . | 21 | .
CN(C(=O)C1CC1)C1CCS(=O)(=O)C1 (centres undefined) | 0.2 | 3 | 0.2 | 0.62 | 3.9 | 6 | 13 | 1.6 | 2 | i
COc1ccc(C(=O)n2nc(-c3ccco3)nc2N)cc1OC | . | . | -0.1 | 0.71 | 1.8 | 7 | 10 | 7.1 | -9 | i
O=C(c1ccco1)N1CCN(C(=O)C2CCCN(S(=O)(=O)Cc3ccccc3)C2)CC1 (centres undefined) | -0.6 | -1 | . | 0.74 | 0.8 | . | . | . | 10 | .
Cc1cc(/C=C2\NC(=S)NC2=O)c(C)n1-c1cccnc1 | -0.4 | 3 | -1.0 | 0.64 | 5.6 | 8 | -3 | -0.4 | -7 | i
CC1(C)OC(=O)C(=CSc2ccc(C(C)(C)C)cc2)C(=O)O1 | 0.4 | -15 | -1.2 | 0.71 | 2.5 | 15 | 5 | 0.4 | 25 | i
COc1ccc(C2=NOC(Cn3nc(C(=O)NCc4ccco4)cc3-c3ccccc3)C2)cc1 (centres undefined) | 0.4 | 0 | 0.3 | 0.71 | 1.2 | -6 | -12 | -2.2 | 23 | i
CSc1ccccc1NC(=O)CN1CCCCC1C (centres undefined) | 0.4 | -3 | 0.4 | 0.64 | 1.3 | 7 | 0 | 1.6 | 7 | i
NC(=O)C1CCCN(C(=O)c2ccc3nc(Cc4cccc(Cl)c4)oc3c2)C1 (centres undefined) | 1.5 | -7 | -9.5 | 0.69 | -1.1 | 1 | 1 | -2.0 | -19 | i
Cc1ccc(S(=O)(=O)NCCC2(C(C)C)CCOC(C)(C)C2)cc1 (centres undefined) | 0.3 | -4 | . | 0.7 | 0.5 | . | . | . | 8 | .
Cc1ccc(C(=O)NC(C)c2ccc(-n3ccnc3)cc2)cc1S(=O)(=O)N1CCOCC1 (centres undefined) | 0.4 | 0 | 10 | 0.64 | 4.9 | 18 | -1 | 1.6 | 21 | i
N=C1/C(=C/c2ccc(-c3cccc(C(=O)O)c3)o2)C(=O)N=C2SC=C(c3ccccc3)N12 | -0.9 | -4 | 1.0 | 0.67 | 26* | -21* | -0.3* | 3.2* | -8 | i
Cc1ccc(-n2ncc(Cl)c2C(=O)NCc2ccccc2)cc1 | -0.2 | 2 | 1.7 | 0.7 | -0.1 | 0 | -6 | 0.7 | 6 | i
COc1ccc(NC(=O)C(=O)NCCC2=CCCCC2)c(OC)c1 | 0.0 | 3 | . | 0.71 | 2.0 | . | . | . | -4 | .
COC(=O)C(OC(=O)c1ccccc1)C(C)Br (centres undefined) | 0.7 | 0 | -11 | . | 4.3 | 6 | 5 | -0.2 | . | i
CCOc1ccc(N2C(=O)Cc3ccccc3C2=O)cc1 | -0.3 | -7 | 2.5 | 0.72 | -0.3 | 0 | 11 | -1.8 | 5 | i
CC(C)(C)c1cc(C(=O)NCc2cc(F)cc3c2OCOC3)n(Cc2ccccc2)n1 | 0.8 | 10 | -1.4 | 0.67 | 3.1 | -2 | -9 | -1.3 | 6 | i
CC(O)CNC12CC3CC(CC(C3)C1)C2 (centres undefined) | 0.0 | 4 | -0.8 | 0.63 | 0.1 | 16 | 9 | 0.3 | -11 | i
Cc1cc(NC(=O)c2coc(=O)c(Br)c2)ccc1C(C)C | -1.7 | -3 | -3.1 | 0.7 | -8.2 | 6 | 5 | 6.9 | -27 | i
CCOC(=O)N1CCC(n2c(=S)[nH]c3ccccc3c2=O)CC1 | 0.4 | 3 | . | 0.8 | 3.8 | . | . | . | -40 | .

structure | Bfl-1 A1 inh | Beta cell apopt | MLL AF4-AF9 inh | Ecoli growth | UCH37 DUB inh | rRNA inh HTS | rRNA inh HTS OD600 | rRNA inh HTS RFP | T cruzi inh | FGF22 binding
Cc1ccc(Cn2c(C(=O)NCCCN3CCOCC3)cc3sccc32)cc1 | 0.5 | -6 | . | 0.72 | 4.0 | . | . | . | 16 | .
CC(=O)c1ccc(NC(=O)C(C)OC(=O)c2cccc(-n3cnnn3)c2)cc1 (centres undefined) | -1.0 | 2 | 1.7 | 0.64 | 0.3 | 4 | -4 | -1.0 | 7 | i
COC(=O)c1nnn(CC(=O)Nc2cccc(Cl)c2)c1C(=O)OC | -0.6 | -2 | . | 0.69 | 1.0 | . | . | . | 10 | .
Cc1cccc(-n2c(O)c(C=Nc3cccc(O)c3)c3ccccc3c2=O)n1 | -0.7 | -3 | 9.7 | 0.71 | 6.9 | -17 | 6 | 11 | -16 | i
CCOC(=O)C(C)Oc1cccc2c(=O)n(CC(=O)NCc3ccc(F)cc3)ccc12 (centres undefined) | 1.5 | 19 | 19 | 0.72 | -17 | 4 | 2 | 2.0 | 22 | i
c1ccc(C[C@H]2CN=C(Nc3ccccc3)N2CCC2CCCC2)cc1 | 2.2 | 9 | 4.0 | 0.74 | -1.7 | -4 | -10 | 8.8 | . | i
COc1ccc(NC(=O)CN(C)C(=O)CC2CCCCC2)cc1 | -0.6 | -2 | -4.6 | 0.65 | 1.6 | 1 | 7 | -1.1 | -4 | i
Cc1ccc(-c2nnn(CCOc3cccc(Br)c3)n2)cc1 | 0.2 | -1 | . | 0.7 | 4.2 | . | . | . | 2 | .
Cc1cc(C)n(S(=O)(=O)c2cccc(Cl)c2Cl)n1 | 0.1 | -7 | . | 0.72 | 3.6 | . | . | . | 2 | .
Cc1cc(C)cc(OCC(=O)Nc2nc(-c3cccnc3)cs2)c1 | -0.4 | -2 | 3.0 | 0.71 | 0.9 | 2 | 3 | -1.3 | 8 | i
O=C(NCc1cccs1)c1ccc(Br)o1 | -0.7 | -7 | -8.8 | 0.69 | 0.1 | 6 | 10 | -1.9 | -18 | i
O=C(NCCCN1CCOCC1)c1ccc2c(=O)n(Cc3ccc(Cl)cc3)c(=S)[nH]c2c1 | 2.4 | . | -1.0 | 0.69 | 8.1 | 4 | 8 | 0.2 | 11 | i
COc1ccccc1C1c2[nH]c3ccccc3c2C[C@H]2C(=O)N(C3CCN(Cc4ccccc4)CC3)CC(=O)N12 (some centres undefined) | 1.1 | 7 | 14 | 0.67 | -0.5 | -25 | -36 | 30 | 38 | i
CCO[C@@H]1OC(C(=O)Nc2ccccc2)=C[C@H](c2ccc(Br)cc2)[C@H]1CCCO | -0.1 | -7 | -23&-1.1 | . | -0.2 | -17 | -32 | 0.1 | 11 | i
CC(C)CC(=O)NC(=S)Nc1ccc(NC(=O)c2ccco2)cc1 | -1.0 | -1 | -5.3 | 0.67 | -0.4 | -8 | 0 | 5.0 | -3 | i
Cc1ccc(NCC(=O)N/N=C\c2ccc[nH]2)cc1 | -0.4 | . | 6.2 | . | . | 2 | 6 | -1.6 | 6 | i
Cc1ccc(-c2nc3cc(N)ccc3o2)cc1Br | -5.7 | 1 | 2.1 | 0.66 | -36 | 0 | -9 | 0.9 | 2 | i
Cc1ccc([C@H]2C(C(=O)O)=CC[C@@H](c3cccc(Cl)c3)N2S(=O)(=O)c2ccc(C)cc2)cc1 | . | . | -0.5 | 0.67 | 5.7 | -38 | -59 | -9.3 | . | i
Cc1cc(C=O)c(C)n1-c1ccc(Cl)c(C(=O)O)c1 | -0.3 | 0 | -8.7 | 0.67 | 5.1 | 9 | -3 | 2.6 | -11 | i
CCOC(=O)C1=C(C)NC(C)=C(C(=O)OCC)C1C | -1.3 | -12 | -8.0 | 0.7 | -62 | -12 | -10 | -0.6 | -2 | i

Retrieved by structure from the entries so far:
structure | Bfl-1 A1 inh | Beta cell apopt | MLL AF4-AF9 inh | Ecoli growth | UCH37 DUB inh | rRNA inh HTS | rRNA inh HTS OD600 | rRNA inh HTS RFP | T cruzi inh | FGF22 binding
Cc1cc(C)cc(OCC(=O)Nc2nc(-c3cccnc3)cs2)c1 | -0.4 | -2 | 3.0 | 0.71 | 0.9 | 2 | 3 | -1.3 | 8 | i
CC(C)CC(=O)NC(=S)Nc1ccc(NC(=O)c2ccco2)cc1 | -1.0 | -1 | -5.3 | 0.67 | -0.4 | -8 | 0 | 5.0 | -3 | i
Cc1ccc(-c2nnn(CCOc3cccc(Br)c3)n2)cc1 | 0.2 | -1 | . | 0.7 | 4.2 | . | . | . | 2 | .

(list continues)
structure | Bfl-1 A1 inh | Beta cell apopt | MLL AF4-AF9 inh | Ecoli growth | UCH37 DUB inh | rRNA inh HTS | rRNA inh HTS OD600 | rRNA inh HTS RFP | T cruzi inh | FGF22 binding
CCc1nnc(SCc2cn3c(C)cc(C)nc3n2)n1N | 1.0 | 1 | . | 0.71 | -13 | . | . | . | -7 | .
COc1ccc(N(C(C)C(=O)NN=C2CCCCCCC2)S(C)(=O)=O)cc1 (centres undefined) | 0.5 | -4 | -1.6 | 0.73 | 0.9 | -6 | 1 | -3.6 | 3 | i
COC(=O)c1cc(-c2c(-c3cc(OC)c(OC)c(OC)c3)noc2C)cc([N+](=O)[O-])c1 | 0.7 | -6 | 12 | 0.71 | 1.6 | -13 | -12 | -7.8 | 2 | i
Cc1nnsc1C(=O)Nc1ccc(S(=O)(=O)N2CCCCC2C)cc1 (centres undefined) | -1.0 | 5 | 3.1 | 0.64 | 2.9 | -13 | -15 | -2.4 | -5 | i
O=C(CCc1ccccc1)NC(=S)Nc1cc(C(F)(F)F)ccc1N1CCOCC1 | 0.9 | 2 | -23 | 0.73 | 2.3 | 0 | 8 | -5.0 | 43 | i
Cc1cc(C)n2nnnc2c1C#N | 0.2 | -7 | . | 0.66 | 5.2 | . | . | . | -5 | .
O=C(c1cccc(F)c1)N1CCN(c2cc(N3CCCCC3)c(F)cc2[N+](=O)[O-])CC1 | -0.3 | 10 | 19 | 0.68 | 3.5 | -17 | -12 | 12 | 33 | i
Cc1nnc(NC(=O)C23CC4CC(C)(CC(C)(C4)C2)C3)s1 | -0.7 | -5 | 7.2 | . | . | 6 | 4 | 2.0 | -16 | i
CCOc1ccc(C(=O)NCC(=O)N2CCCCCCC2)cc1OCC | 0.3 | -2 | 2.0 | 0.69 | -1.0 | 2 | 6 | -1.9 | 18 | i
CC(=O)c1nnn(-c2ccccc2C#N)c1C | -0.6 | -10 | -4.1 | 0.68 | 4.9 | . | . | . | -17 | i
COc1ccc(/C(C)=N/NC2=NCCN2)cc1Cl | -0.4 | 8 | 4.3 | . | . | 13 | 1 | -0.7 | 37 | i

The list is partial (hit frequency here may not be typical).
